High-throughput results as filed in PubChem BioAssay.
HSV augment: increases HSV replication in cells; HSV replication augmentation in cells, fold increase; maximum fold increase; 220,000 tested, 0.005% active;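 active = peak rise of 1.5-fold or more in the series; inconclusive = self-fluorescent or not available for retest; tested in PC3 cells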;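 also: first round at 10 µM; read as green reporter fluorescence; hits show the peak of a series up to 25 µM; 1 = signal of infected wells without compound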
GALR2 ag: GALR2 (human) receptor agonism; GALR2-expressing cells, agonist activation read-out; 140,000 tested, 0.48% active; activation, %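 (tested at 5 µM)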; O43603;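 active = above mean plus 3 SD of all compounds, about 5% in these data, not always enough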;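 also: 0% = vehicle buffer wells and 100% = reference agonist at full effect; tested in CHO reporter cells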
Target sequence (O43603 whole entry, looked up): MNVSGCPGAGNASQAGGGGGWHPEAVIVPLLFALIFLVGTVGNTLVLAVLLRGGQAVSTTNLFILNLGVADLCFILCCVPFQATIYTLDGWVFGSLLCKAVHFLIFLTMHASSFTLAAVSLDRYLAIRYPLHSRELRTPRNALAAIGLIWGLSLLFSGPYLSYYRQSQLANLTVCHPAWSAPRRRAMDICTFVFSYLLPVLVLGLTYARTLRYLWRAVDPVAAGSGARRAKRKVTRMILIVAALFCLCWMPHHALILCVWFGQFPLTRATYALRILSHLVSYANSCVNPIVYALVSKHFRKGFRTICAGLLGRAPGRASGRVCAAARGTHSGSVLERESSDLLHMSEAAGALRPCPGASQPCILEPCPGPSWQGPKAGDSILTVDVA
RGS16-Gao: regulators of human RGS16-Galphao interaction; binding response (% of control), % at 10 µM; bead-based flow cytometry RGS16-Galphao binding, fluorescence; actives lie on both sides; AID 1441; 220,000 tested, 0.38% active; O15492+P09471;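 active = below 25% or above 175%, edge rows of some plates excepted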;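 also: Galphao activated by GDP with aluminum fluoride before binding; 100% = wells without compound and 0% = beads without RGS; some results beyond the cut were filed as inactive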
Target sequence (O15492 whole entry, looked up): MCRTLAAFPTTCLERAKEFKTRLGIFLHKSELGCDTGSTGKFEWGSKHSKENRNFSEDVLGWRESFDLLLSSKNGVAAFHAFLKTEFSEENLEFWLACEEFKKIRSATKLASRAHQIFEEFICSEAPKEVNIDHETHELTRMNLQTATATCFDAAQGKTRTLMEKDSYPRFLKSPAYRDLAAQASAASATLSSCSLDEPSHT
Target sequence (P09471 whole entry, looked up): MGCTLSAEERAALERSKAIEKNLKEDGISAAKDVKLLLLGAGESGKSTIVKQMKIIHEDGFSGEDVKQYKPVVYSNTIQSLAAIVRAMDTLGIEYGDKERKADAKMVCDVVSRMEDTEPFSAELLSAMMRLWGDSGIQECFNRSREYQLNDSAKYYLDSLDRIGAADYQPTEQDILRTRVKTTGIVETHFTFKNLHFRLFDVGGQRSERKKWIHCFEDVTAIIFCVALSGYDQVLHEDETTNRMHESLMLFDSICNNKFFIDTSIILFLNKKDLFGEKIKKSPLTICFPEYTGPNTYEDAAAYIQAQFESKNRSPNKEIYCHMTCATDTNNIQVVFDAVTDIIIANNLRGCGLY
INS promoter inh: TRM-6 insulin promoter activity inhibition; inhibition, % at 2 µM; 130,000 tested, 0.9% active; TRM-6 cells (human fetal islet line), insulin promoter-eGFP reporter, imaging; reporter expression induced with tamoxifen;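 active = inhibition above the mean plus 3 SD, with well images judged a real hit on visual review, cut at about 60% in these data, passing the limit was not always enough; inconclusive = inhibition over the cutoff but images rejected on review; inactive = inhibition not above the cutoff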
PKD1 inh: inhibitors of human PKD1 kinase; Q15139; PKD1 kinase fluorescence polarization assay; inhibition, %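 (about 10 µM by stock and volumes)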; 200,000 tested, 0.056% active; AID 797;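 active = inhibition of 50% or more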;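 also: controls were vehicle for no effect and a reference inhibitor for full effect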
INS promoter inh cell count: recorded beside INS promoter inh, whose call it bears; normalized cell count, %; measured here: cell count, toxicity; reference of the scale not given here;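 cells exposed to compound for 48 h; stained nuclei by imaging scaled within each plate; lower means fewer cells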
HSV augment primary fold: second read-out of HSV augment, no call of its own (marks repeat the call); fold increase; compound at 10 µM; measured here: primary screen fold increase 10 uM; tested in PC3 cells;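 GFP signal in the first replicate; 1 = infected wells without compound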
Starred values were filed as active, the others as inactive; i = inactive; ? = inconclusive; / = not tested or not shown.

item	SMILES	HSV augment	HSV augment primary fold	GALR2 ag	RGS16-Gao	INS promoter inh	INS promoter inh cell count	PKD1 inh
1	CCc1cc2c3c(c1)C1(C(=O)N3C(C)(C)CC2C)C(C#N)=C(N)N2C(=C1C#N)Nc1ccccc12 (stereo unspecified)	i	1	0.9	107	/	/	2
2	COc1cccc(NC(=O)N2CCCC(C(=O)Nc3ccccc3OC)C2)c1 (stereo unspecified)	i	0.64	0.7	102	/	/	-2
3	CC(C)c1nc2sc(C(=O)O)c(N)c2c2c1CCCC2	i	0.9	/	101	/	/	/
4	O=C(OCC1COc2ccccc2O1)c1ccccc1F (stereo unspecified)	i	1.1	-3.0	115	/	/	-10
5	Cc1c(C#N)c2ncnc(-c3ccccc3)c2n1-c1ccccc1	i	1	-1.1	99	-100	106	4
6	CCCCNc1nc2sc3c(c2c(=O)n1-c1cccc(Cl)c1)CCN(C)C3	i	1	/	104	/	/	/
7	COc1ccc(OCCN2CCN(C3CC(=O)N(CCC(C)C)C3=O)CC2)cc1 (stereo unspecified)	i	0.95	-2.2	105	/	/	-9
8	CCn1c(SCC(=O)Nc2ccc(C)cc2)nnc1-c1ccc(O)cc1	i	0.82	-0.8	86	-62	95	4
9	O=C(NNC(=O)c1ccccc1[N+](=O)[O-])Nc1ccccc1C(F)(F)F	i	0.97	/	110	-67	133	-1
10	Cc1cccc(C)c1NC(=O)c1cc(S(=O)(=O)N2CCOCC2)ccc1F	i	0.65	-1.8	106	20	95	4
11	CCN(C(=O)COC(=O)c1[nH]c(C)c(C(C)=O)c1C)C1CCS(=O)(=O)C1 (stereo unspecified)	i	0.95	-1.4	99	0	149	-9
12	CC(=O)[C@@]1(O)CC[C@H]2[C@@H]3CCC4=CC(=O)CC[C@]4(C)[C@H]3CC[C@@]21C	i	0.78	2.4	101	-95	79	-5
13	COC(=O)c1ccc(NC(=O)CCn2c(=O)oc3ccccc32)cc1	i	1.1	-0.2	108	29	57	7
14	CN(C)/C=C/C(=O)c1ccc(Br)s1	i	1.3	/	98	11	90	-11
15	OCCNCCSc1ccc(Cl)cc1	i	0.98	/	106	/	/	-7

Full records from above. Order of screens: HSV augment, HSV augment primary fold, GALR2 ag, RGS16-Gao, INS promoter inh, INS promoter inh cell count, PKD1 inh
Profile of CN(C)/C=C/C(=O)c1ccc(Br)s1 → i, 1.3, /, 98, 11, 90, -11
Profile of CC(C)c1nc2sc(C(=O)O)c(N)c2c2c1CCCC2 → i, 0.9, /, 101, /, /, /
Profile of COc1cccc(NC(=O)N2CCCC(C(=O)Nc3ccccc3OC)C2)c1 (stereo unspecified) → i, 0.64, 0.7, 102, /, /, -2
Profile of Cc1cccc(C)c1NC(=O)c1cc(S(=O)(=O)N2CCOCC2)ccc1F → i, 0.65, -1.8, 106, 20, 95, 4
Profile of CCc1cc2c3c(c1)C1(C(=O)N3C(C)(C)CC2C)C(C#N)=C(N)N2C(=C1C#N)Nc1ccccc12 (stereo unspecified) → i, 1, 0.9, 107, /, /, 2

(next part)
item	SMILES	HSV augment	HSV augment primary fold	GALR2 ag	RGS16-Gao	INS promoter inh	INS promoter inh cell count	PKD1 inh
16	CC(C)OCC(O)CN1CCNCC1 (stereo unspecified)	i	0.9	-0.8	89	-4	113	11
17	COc1cccc(CNC(=O)CCC2CCCN(C(=O)c3ccc(C)nc3)C2)c1 (stereo unspecified)	i	0.97	/	108	/	/	3
18	CCC(=O)Nc1ccc(Br)c(Cl)c1	/	/	-2.2	84	62	91	-7
19	O=C(CCn1c(=S)oc2ccccc21)N1CCN(c2ccc(F)cc2)CC1	i	0.92	/	102	/	/	/
20	CCCCN(CC)C(=O)Cc1cn(C)c2ccccc12	i	1.1	-0.4	100	-61	97	9
21	Cc1ccc2cc(C#N)c(NCCNC(=S)NCCCN(C)C)nc2c1C	i	0.93	/	98	40	66	5
22	O=C1S/C(=C\c2ccc(Cl)cc2)C(=O)N1CCn1cnnn1	i	0.96	/	100	/	/	-2
23	O=C(O)C1CCCN(S(=O)(=O)c2ccc3c(c2)OCCO3)C1 (stereo unspecified)	i	0.93	/	92	0	122	-5
24	COc1ccc2nc(/C(C#N)=C\c3ccc(Oc4ccc([N+](=O)[O-])cn4)cc3)[nH]c2c1	i	1	2.4	101	-29	176	-3
25	Cc1cccc(N/C=C(\[N+](=O)[O-])S(=O)(=O)c2ccccc2)c1C	i	1	/	103	/	/	0
26	Cn1nc(-c2ccccc2)c(CSc2ccccc2)c1Cl	i	1	3.7	102	-48	98	-1
27	COc1ccc(C(=O)CSc2nnc(CCc3ccccc3)n2-c2ccccc2)cc1	i	0.95	-3.1	161	7	91	1
28	COc1cccc(C(=O)Nc2cccc(C(=O)NCC(C)C)c2)c1	i	0.9	-1.0	73	-1	64	-2
29	CC(/C=C/c1ccc(N(C)C)cc1)=N/N=C1/NC(=O)CC(C(=O)Nc2ccc(Cl)cc2)S1 (stereo unspecified)	i	1.1	1.4	103	-66	157	3
30	CC(=O)Nc1ccccc1C(=O)C(=O)Nc1cccc(Br)c1	i	1	/	100	/	/	-3
31	COc1cc(C(=O)NC2CCCc3ccccc32)ccc1OCC(=O)Nc1ccc(F)cc1 (stereo unspecified)	i	0.8	-1.2	104	-20	109	-1
32	COC(C(=O)Nc1ccc(F)cc1)c1ccccc1 (stereo unspecified)	i	0.96	-0.3	91	31	109	3
33	CCOC(=O)C(NC(=O)c1ccc(F)cc1)(Nc1nnc(C)s1)C(F)(F)F (stereo unspecified)	i	1	-0.4	104	-52	121	-8
34	Cc1ccc(C(C)C)c(OCC(=O)Nc2ccc(N3CCN(S(C)(=O)=O)CC3)cc2)c1	i	0.82	-0.8	79	17	69	-2
35	CC(C)CC(=O)Nc1ccc2c3c(cccc13)CC2	i	0.98	0.6	105	-19	86	6
36	COc1cccc(CN2CCNC(=O)C2CC(=O)NCCOc2cccnc2)c1 (stereo unspecified)	i	1.1	/	100	/	/	-2
37	COc1cc(/C=C(\NC(=O)c2ccccc2)C(=O)NCCO)c([N+](=O)[O-])cc1OC	i	1	-1.3	109	36	119	-9
38	CCOC(=O)CSc1ccc2nnc(-c3ccccc3)n2n1	i	1	-1.6	108	/	/	-14
39	N#C/C(=C\c1cccc(NC(=O)c2ccccc2Cl)c1)C(=O)NCCc1ccccc1	i	0.88	-2.3	102	/	/	4
40	CC(C)Oc1ccc(C(CC(=O)O)NC(=O)C(Sc2ccccc2)c2ccccc2)cc1 (stereo unspecified)	i	1	/	112	64	174	-3
41	COc1ccc(NC(=O)C2CCCN(S(=O)(=O)c3cccc4nonc34)C2)cc1OC (stereo unspecified)	i	0.96	/	100	11	124	-1
42	COc1ccc(/C=N/n2cncn2)cc1Cn1cc([N+](=O)[O-])cn1	i	0.87	/	94	/	/	/
43	O=C(O)C1SCCN1S(=O)(=O)c1ccc(N=NN2CCOCC2)cc1 (stereo unspecified)	i	1	/	112	/	/	-2
44	c1ccc(-c2nnc3sc(-c4cc5ccccc5o4)nn23)cc1	i	0.9	0.6	99	-44	170	-10
45	CC(C)C(=O)NC(CC(=O)O)c1ccccc1 (stereo unspecified)	i	1	/	101	/	/	/
46	O=C(NCc1ccccn1)C1CCN(S(=O)(=O)c2cnc[nH]2)CC1	/	/	-1.0	103	/	/	-10
47	COc1ccc(N(C)S(=O)(=O)c2cccc(C(=O)NC3CCCCC3C)c2)cc1 (stereo unspecified)	i	0.89	/	105	-14	178	-5
48	Cc1ccc(CSCC(=O)NCc2cccnc2)cc1	i	1	-0.8	111	19	94	-2
49	NC(=O)CSc1nnc(-c2ccncc2)n1CCc1ccccc1	i	1.1	-0.6	103	/	/	7
50	NS(=O)(=O)c1ccc(NC(=O)C(=O)NCCC(=O)O)cc1	i	0.96	/	97	/	/	/
51	COc1ccc(OC)c(S(=O)(=O)Nc2ccc(Oc3ccccc3)cc2)c1	i	0.93	-3.5	135	-26	90	-1
52	COc1cc(N=C(N)N=C(N)N)cc(OC)c1	i	1	/	103	/	/	0
53	Cc1ccc(C(=O)O/N=C2/CC3CCC2(C)[C@@]3(C)CBr)cc1 (stereo partly specified)	i	1.1	/	99	/	/	/
54	O=c1cc(C(F)(F)F)nc(-c2cccnc2)[nH]1	i	0.93	/	58	-43	91	2
55	O=C(Nc1ccc2c(c1)OCCO2)C1CCCN1S(=O)(=O)c1ccc(Cl)cc1 (stereo unspecified)	i	0.97	-2.7	101	-17	84	1
56	COc1cccc2cc(S(=O)(=O)c3ccccc3)c(=Nc3ccc4c(c3)OCCO4)oc12	i	0.82	-0.7	103	0	86	-7
57	COc1cccc2cc(-c3ccccc3)c(=O)oc12	i	1.2	/	100	12	119	7
58	Cc1ccc(Cn2nnc3c(=O)n(CC(=O)N4CCN(c5ccccc5)CC4)cnc32)cc1	i	0.91	-2.7	102	-86	97	4
59	COc1cc2cc(CN(CCN3CCCC3)C(=O)Nc3ccc(F)cc3)c(=O)[nH]c2cc1OC	/	/	-2.6	95	/	/	-18
60	COc1cc(OC)cc(C(=O)NCCSc2c[nH]c3ccccc23)c1	i	0.61	/	87	/	/	/
61	Oc1ccc(-c2onc3ccc(Cl)cc23)cc1	?	/	-2.4	415	4	111	-5
62	CC(=O)c1c(C)[nH]c(C(=O)OCC(=O)Nc2ncc(Cl)c(C)c2Cl)c1C	i	0.94	0.3	95	-3	90	-9
63	CN(C)CCNc1cnn(-c2ccccc2)c(=O)c1Cl	i	1	/	102	/	/	-3
64	COc1cc(C2C(C#N)=C(N)OC3=C2C(=O)CCC3)cc(OC)c1OC(=O)N1CCOCC1 (stereo unspecified)	i	0.74	-2.3	100	-12	123	-4
65	CO/N=C/c1ccc(OC)c(Oc2nc(OC)cc(OC)n2)c1	i	1.1	/	120	/	/	-1
66	CCN(CC)S(=O)(=O)c1ccc(N2CCOCC2)c(NC(=O)CCC2CCCCC2)c1	i	1	0.4	102	13	125	-9
67	Cc1cc(C)n(CCCO)c(=O)c1C#N	i	0.98	-4.2	94	3	100	5
68	O=C(NCc1ccc(F)cc1)C1CCCN(C(=O)Nc2ccccc2)C1 (stereo unspecified)	i	0.89	-0.9	106	/	/	-5
69	CCOC(=O)C1(Cc2cccc(OC)c2)CCN(Cc2cnc(N)nc2)CC1	i	0.99	/	98	/	/	1
70	CC(=O)Nc1cc(-c2nn3c(C)nnc3s2)ccc1C	i	1	-0.4	114	/	/	-1
71	Cn1c(=O)n(C)c2cc(/C=N/NC(=O)c3ccncc3)ccc21	i	0.9	/	100	/	/	3
72	O=C(CN1CCOc2ccccc21)N1CCN(c2cccc(Cl)c2)CC1	i	1	-2.8	/	/	/	-9
73	O=C(COc1ccccc1O)NNc1ccccc1	i	1	-0.4	97	-63	110	-2
74	CC1C(C#N)=C(N)OC2=C1C(=O)CC(c1ccccc1)C2 (stereo unspecified)	i	1.1	/	104	/	/	6
75	Cc1cccc(NC(=O)c2sc(NC(=O)COc3ccccc3)c(C#N)c2C)c1C	i	1	-1.4	83	44	123	-10

Later entries:
item	SMILES	HSV augment	HSV augment primary fold	GALR2 ag	RGS16-Gao	INS promoter inh	INS promoter inh cell count	PKD1 inh
76	CCCCCCNC(=O)Cc1c(O)c2ccccc2[nH]c1=O	i	0.94	0.9	92	-16	111	-5
77	O=C(CN(CCc1ccccc1)S(=O)(=O)c1ccc(Cl)cc1)N/N=C/c1ccc2c(c1)OCO2	i	0.9	-1.1	119	-3	89	-2
78	CC(C)(CN1CCc2ccccc2C1)NS(=O)(=O)c1ccccc1	i	1	/	100	/	/	/
79	COc1ccc(OCC(=O)Nc2ccc(N3CCC(C)CC3)cc2)cc1	i	0.9	/	101	/	/	-5
80	CCOC(=O)C1=C(C)NC(=O)NC1c1ccc(Cl)cc1Cl (stereo unspecified)	i	1.1	-1.9	95	-91	112	2
81	NS(=O)(=O)c1ccc(CNS(=O)(=O)c2ccc(Cl)nc2)cc1	i	0.95	/	101	/	/	1
82	COCCN(CCOC)Cc1c(C)[nH]c2ccccc2c1=O	i	0.95	-0.9	102	30	173	-6
83	Cc1ccc(C(=O)N/N=C/c2cccc(OC(=O)/C=C/c3ccco3)c2)cn1	i	1.1	/	114	/	/	2
84	COc1ccc(CNC(=O)COC(=O)CCCOc2ccc(Cl)cc2Cl)cc1	i	0.99	-0.3	100	/	/	7
85	Cc1cc(C)n(-c2nc(NCC(C)O)c3c4c(sc3n2)CCCC4)n1 (stereo unspecified)	i	0.88	8.8*	100	-17	29	-9
86	COc1ccc2c(c1)NC(c1ccc(N(C)C)cc1)c1cccn1-2 (stereo unspecified)	i	1.1	/	100	/	/	/
87	CCOc1ccccc1C1C(C#N)=C(N)Oc2cc(C)n(C)c(=O)c21 (stereo unspecified)	i	1.1	-3.9	101	-4	100	0
